Screens: PubChem, ICCB-Longwood Screening Facility, Harvard Medical School
Sa helicase inh: blocks Staphylococcus aureus DNA helicase; purified S. aureus helicase, fluorescence unwinding assay; about half of the hits fall short of the stated cut; 120,000 tested, 0.05% active; inhibition, %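 (tested at about 80 µM)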; AID 485395;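 active = both duplicates at 50% or more, or one of them with a favoured structure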;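 note: 0% = mean of negative control wells and 100% = mean of positive control wells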
MgrA DNA FP: modulators of Staphylococcus aureus MgrA DNA binding; fluorescence polarization; inhibition, %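 (about 10 µg/mL by stock and volumes)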; 84,000 tested, 0.13% active;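 active = above 50% in either of two replicates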;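 note: 0% = protein plus DNA without compound and 100% = DNA alone without protein; higher means less MgrA bound to DNA so lower polarization; one replicate is shown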
* = called active by the depositor; x = not tested or not shown. A portion of the library; rates above refer to the full screens.

Sa helicase inh	MgrA DNA FP	structure
4	-0.3	CC(C)C(NC(=O)Cc1ccccc1)C(C)C
5	x	Cc1ccc(-c2nnn(C3CCOC3=O)n2)cc1 (centres undefined)
1	x	CC(NC(=O)CCn1[nH]c(=O)ccc1=O)C12CC3CC(CC(C3)C1)C2 (centres undefined)
x	0.9	Cc1ccc(C(=O)Nc2ccc(-c3cn4c(n3)SCC4)cc2)cc1C
11	-0.8	Cc1ccc(-n2c(C)nc3sc4c(c3c2=O)CCC4)cc1
1	x	NC#Cc1cnn(-c2ccccc2)n1
-19	x	CSc1nc2ccccc2n1C(=O)c1cccs1
x	-1.5	O=C(Nc1ccccc1C(=O)NCCc1ccccn1)c1ccc(Cl)c(Cl)c1
x	0.3	CCN(CC)c1ccc(-c2nc3cc(NC(=O)c4ccc(OC)c(OC)c4)ccc3o2)cc1
x	-2.0	Cn1cc(C(=O)c2ccc(Cl)cc2)cc1/C=C(\C#N)S(=O)(=O)c1cccs1
29	x	Cc1ccc(CNC(=O)C(C)n2ncn3cccc3c2=O)cc1 (centres undefined)
1	x	O=C(NC1CCCCC1)c1ccc2c(=O)n(-c3ccccc3)c(=O)[nH]c2c1
-3	x	Cc1cc(C(C#N)c2nc3ccccc3o2)nc(N2CCOCC2)n1 (centres undefined)
x	-1.0	CNC(=O)c1c(C)nn(-c2ccc(F)c(Cl)c2)c1-c1cc(C)on1
-6	x	CCOC(=O)Nc1ccc2c(CN(C)Cc3ccc(F)cc3)cc(=O)oc2c1
6	5.1	COC(=O)c1c(NC(=S)N(C)Cc2c(C)nn(C)c2C)sc2c1CCC2
-1	x	CCOc1ccc(-n2c(SC(C)C(=O)NC(N)=O)nc3ccccc32)cc1 (centres undefined)
x	-2.3	FC(F)(F)c1ccc(SCc2ccc3nonc3c2)nc1
27	x	O=C(CCN1CCOCC1)Nc1ccc(S(=O)(=O)Nc2cc(Cl)cc(Cl)c2)cc1
2	x	CC1=C(C(=O)N2CCN(c3ccccc3)CC2)C2(CCN(S(C)(=O)=O)CC2)OC1=O
3	x	CN(C)C(Cc1ccccc1)C(=O)c1cccn1C (centres undefined)
-4	x	CCCn1c(C)cc(/C=C(\C#N)C(=O)OCn2nnc3ccccc3c2=O)c1C
4	x	O=C(CSc1nc2ccsc2c(=O)n1NC(=O)c1ccccc1)NCc1ccco1
8	x	O=C(CCN1C(=O)c2ccccc2C1=O)NCCc1ccccc1
9	x	O=C1C2C3c4ccccc4C(c4ccccc43)C2C(=O)N1/N=C/c1ccco1 (centres undefined)
15	-1.2	COc1cc(OC)nc(NC(=O)C(C)C)n1
-17	x	CC(=O)Nc1scc2c1c(=O)oc1ccccc12
2	x	COc1ccc(CCN2Cc3nc4ccccc4c(=O)n3CC2=O)cc1
-11	x	Cc1cc(NC(=O)C(C)C)n(-c2nc3ccccc3s2)n1
-18	x	CCN(CC)C(=O)c1ccc(C(C)(C)C)cc1

4 of these compounds, reformatted:
Compound: CC(=O)Nc1scc2c1c(=O)oc1ccccc12
  Sa helicase inh: -17
  MgrA DNA FP: x

Compound: COC(=O)c1c(NC(=S)N(C)Cc2c(C)nn(C)c2C)sc2c1CCC2
  Sa helicase inh: 6
  MgrA DNA FP: 5.1

Compound: FC(F)(F)c1ccc(SCc2ccc3nonc3c2)nc1
  Sa helicase inh: x
  MgrA DNA FP: -2.3

Compound: O=C1C2C3c4ccccc4C(c4ccccc43)C2C(=O)N1/N=C/c1ccco1 (centres undefined)
  Sa helicase inh: 9
  MgrA DNA FP: x

Other results follow.
Sa helicase inh	MgrA DNA FP	structure
6	x	CC(C)(C)NC(=O)CN1CCN(CCC#N)CC1
0	-2.0	O=c1cc(-c2cccs2)[nH][nH]1
28	x	COc1ccc(NS(=O)(=O)N(C)C)c(OC)c1
12	x	Cc1ccc(Nc2nc(=O)c3cccnc3s2)cc1
-14	x	O=C(O)C1CCCN(C(=O)c2cnn(-c3ccccc3)c2-n2cccc2)C1 (centres undefined)
20	x	COc1ccc(NC(C)=O)cc1NC(C)C(=O)N1CCCc2ccccc21 (centres undefined)
-25	x	Nc1nc(N)c2c(n1)CCCC2
0	-1.3	COc1ccccc1C(=O)N1CCOCC1
9	1.2	CC(c1ccccc1)N(Cc1ccccc1)C(=S)Nc1ccccc1 (centres undefined)
2	x	O=c1cc(COc2ccccc2)nc2sccn12
25	x	CCOC(=O)c1c(C)n(C)c2ccc(OCC(O)CNC(C)(C)C)cc12 (centres undefined)
16	x	CCn1nnc2c(N3CCN(C=O)CC3)ncnc21
x	0.8	Cc1ccc(N=Cc2cccs2)cc1Cl
-5	x	Cc1ccc(S(=O)(=O)N(C)c2nc3ccccc3nc2Sc2nnnn2C)cc1
x	2.2	CN(CC(=O)O)C(=S)c1ccccc1
7	3.5	Oc1ccccc1CNc1ccc(Br)cc1
4	-0.8	O=C(NCc1ccccc1)C(c1ccccn1)N(C(=O)c1csnn1)C1CC1 (centres undefined)
8	-2.5	Fc1ccccc1OC1OCCOC1Oc1ccccc1F (centres undefined)
-17	x	COc1ccccc1N1CCN(C(=O)C(C)c2ccc(CC(C)C)cc2)CC1 (centres undefined)
-12	x	Cc1ccc(CCNC(=O)CCCn2c(=O)c3ccccc3n(CC(N)=O)c2=O)cc1
15	x	OC(CNCc1ccco1)CON=C1c2ccccc2-c2ccccc21 (centres undefined)
-6	x	CCN(CCCN1C(=O)CSC1c1ccc(OC(F)F)c(OC)c1)c1ccccc1 (centres undefined)
-14	x	CN1CCN(CC#CCC(O)(c2ccccc2)C2CCCC2)CC1 (centres undefined)
x	-1.5	Cn1c(=O)[nH]c(=O)c2c1nc(SCc1cccc(Br)c1)n2CC(O)COc1ccccc1 (centres undefined)
-22	x	N#Cc1nc(-c2ccccc2)oc1N1CCOCC1
x	-1.7	COC(=O)C1CC2CC(CC(C(=O)OC)C23SCCS3)C1=O (centres undefined)
-9	x	O=C1CCCN1C(=O)CSc1nc2cc(Cl)ccc2s1
2	-3.1	O=C(NC1CCCCC1)C1CCN(C(=O)c2ccco2)CC1
3	x	CC(C)(C)C(=O)CSc1nc(N)cc(N)n1
x	-0.1	COc1c(Br)cc(-c2noc(CSC)n2)cc1Br
x	-0.9	O=C(O)CCC(=O)Nc1ncccc1OCc1ccc(Cl)c(Cl)c1
25	11	O=C(NCCCN1CCCC1)c1cc2c(Cl)nc3ccccc3c2s1
4	2.8	CCC(C)N1C(=O)S/C(=C/c2ccc3c(c2)n(C)c(=O)n3C)C1=O (centres undefined)
-2	2.4	CCOc1ccc2c(c1)sc(=NC(=O)c1cc3ccccc3cc1OC)n2C
-6	x	CN(C)/N=C/C=C1\CC/C(=C\c2ccccc2)C1=O
10	x	CN(C(=O)Cn1nnc(-c2cccs2)n1)C1CCCc2ccccc21 (centres undefined)
x	-0.5	NNc1nc(-c2ccccc2Cl)c2cc(Br)ccc2n1
5	x	Cc1ccc(S(=O)(=O)N2CCN(c3cnn(-c4ccccc4)c(=O)c3Cl)CC2)cc1
-9	x	O=C(CCc1c[nH]c2ccccc12)N1CCN(S(=O)(=O)c2ccc3c(c2)OCCO3)CC1
11	x	CCCCNC(=S)N1CC2(C)CC1CC(C)(C)C2 (centres undefined)
-7	-0.9	CCC(=Nc1ccc(N)cc1)C1=C(O)CC(C)(C)CC1=O
-15	x	Cc1cnc(C(=O)OCC(=O)N(C)c2ccccc2)cn1
22	x	Cc1nc2c(Cl)c(Cl)ccc2s1
2	x	Cc1ccc(NC(=O)c2ccc3snnc3c2)cc1
x	-0.5	Cn1ccnc1SCCS(=O)(=O)c1ccccc1
8	0.6	COc1cc2[nH]c(=O)n(CCCC(=O)NC3CCCC3)c(=O)c2cc1OC
17	x	O=C(OCC(=O)c1c[nH]c2ccccc12)c1cncc(Br)c1
-2	0.4	COc1cccc(C2=CC(c3cccc(OC)c3)n3ncnc3N2)c1 (centres undefined)
-19	1.5	COc1ccc(N2CCN(C(=O)CCNS(=O)(=O)c3ccccc3)CC2)cc1
x	1.2	COc1ccc(-n2c(-c3ccc(C)cc3)csc2=N)cc1
x	-1.6	O=C(Nc1ccccc1)Nc1ccccc1C(=O)O
x	-0.9	CN(C)C(=O)c1cccnc1SCCS(=O)(=O)c1ccccc1
0	x	c1ccc(Nc2ccccn2)nc1
x	2.2	O=C(CSc1ccc([N+](=O)[O-])cc1[N+](=O)[O-])Nc1ccc(F)cc1
16	x	Cc1ccc2nc(NC(=O)NC3CC(=O)N(c4ccc5c(c4)OCCO5)C3)sc2c1 (centres undefined)
7	-2.2	Cc1cccc(OCC(=O)OC2CCN(C)CC2)c1
2	-3.0	CCCCc1n[nH]c2c1/C(=N\O)CC(c1ccccc1)C2 (centres undefined)
-2	2.0	CN1C(=O)N(C)C2(c3ccccc3)NN3C(=O)CSC3=NC12c1ccccc1 (centres undefined)
10	4.2	CCOC(=O)C1=C(C)NC(=O)C(C(N)=O)C12CCCCC2 (centres undefined)
13	x	CC1CC2CC(=O)CC(C1)C2 (centres undefined)

Part of the list above, reformatted.
SMILES: O=C(OCC(=O)c1c[nH]c2ccccc12)c1cncc(Br)c1
- Sa helicase inh: 17
- MgrA DNA FP: x
SMILES: COc1cccc(C2=CC(c3cccc(OC)c3)n3ncnc3N2)c1 (centres undefined)
- Sa helicase inh: -2
- MgrA DNA FP: 0.4
SMILES: COc1ccc(N2CCN(C(=O)CCNS(=O)(=O)c3ccccc3)CC2)cc1
- Sa helicase inh: -19
- MgrA DNA FP: 1.5
SMILES: COc1ccc(-n2c(-c3ccc(C)cc3)csc2=N)cc1
- Sa helicase inh: x
- MgrA DNA FP: 1.2

Remaining list, next part
Sa helicase inh	MgrA DNA FP	structure
8	1.9	O=C(N/C=C/n1cnc2cc(C(F)(F)F)ccc21)c1cccs1
-12	x	CCCC(=O)NC(C)c1nc2ccccc2n1C(C)C (centres undefined)
-16	x	C=CCn1c(SCC(=O)NCc2ccc3c(c2)OCO3)nnc1-c1ccccc1F
3	x	O=C1C2CC=CCC2C(=O)N1c1cccc(O)c1 (centres undefined)
-4	x	CCCSc1ncc(Cl)c(C(=O)Nc2c(C)n(C)n(-c3ccccc3)c2=O)n1
12	x	CC(C)CNc1n[nH]c(=S)s1
3	-0.8	CC1CCCCN1C(=O)CSc1nc(-c2ccccc2)cc(C(F)(F)F)n1 (centres undefined)
x	1.1	COc1ccc(NC(=O)c2ccc3nonc3c2)cc1
x	-3.0	Cc1cc(Sc2ccccn2)nc(N)n1
6	3.8	CC(C)NC(=S)Nc1cccc(C(=O)O)c1
9	-1.4	CC(C)Nc1cnn(C23CC4CC(CC(C4)C2)C3)c(=O)c1Cl
-15	x	COc1cc(/C=N/n2c(=S)[nH]nc(C)c2=O)ccc1OCC(=O)N1CCOCC1
12	-2.2	CCc1ccc(NC(=O)C2CCN(c3nnc(-n4cccc4)s3)CC2)cc1
-4	2.0	O=S(=O)(Nc1ccccc1O)c1ccc2ccccc2c1
x	-0.4	Nc1c(C(=O)O)sc2nc(-c3ccccc3)cc(C(F)(F)F)c12
6	0.2	COC(=O)C1=CN(C2CC2)C=C(C(=O)OC)C1c1ccsc1
x	-2.5	O=C(Nc1ccc(N=Cc2ccccc2O)cc1)c1ccccc1O
-1	x	Cc1ccc(-n2c(C)c(Cc3ccccc3)[nH]c2=O)cc1
x	2.9	O=[N+]([O-])c1ccc(N2CCN(S(=O)(=O)c3ccc(F)cc3F)CC2)nc1
-1	3.2	O=C(CCSCc1ccc(Cl)cc1)Nc1ccc(F)cc1
0	0.0	Cc1ccccc1CN1CCC(O)CC1
11	x	Cc1nc(Nc2ccccc2)nc2c1ncn2-c1ccccc1
x	-0.2	O=C1c2ccccc2CCC1(CO)CO
x	-0.6	CCOc1cc(C2Nc3ccccc3NC3=C2C(=O)CC(c2ccc(OC)cc2)C3)ccc1OC(C)=O (centres undefined)
4	x	C#CCn1c(=NC(=O)C2COc3ccccc3O2)sc2cc(Br)ccc21 (centres undefined)
12	x	COc1ccc(N2CN=c3s/c(=C\C=C\c4ccccc4)c(=O)n3C2)cc1OC
9	5.2	CC(=O)Nc1ccc(OCc2ccccc2)cc1
9	x	c1cn2cc(-c3ccc4c(c3)OCO4)nc2s1
23	x	O=S(=O)(NC1CCN(Cc2ccccc2)CC1)c1ccc(-n2cccn2)cc1
10	1.0	COc1ccc(CN2CCCC2C(=O)Nc2ccc(OC)c(OC)c2)cc1OC (centres undefined)
-17	0.2	CC1CN(C(=O)c2ccncc2)CC(C)O1 (centres undefined)
13	-2.2	COc1ccc2cc3cc(C(=O)NCCC4=CCCCC4)sc3nc2c1
41	5.3	CCOc1cccc(=NC2CCCCC2)c2c(C)n(C)c(C)c12
18	-1.6	O=C(O)COc1ccc2nsnc2c1
-2	3.6	CCc1cc(-c2n[nH]c(C(=O)O)c2-c2nc(C)cs2)c(O)cc1O
x	-2.1	N#Cc1ccc(C#CCOC(=O)c2ccccc2)cc1
-27	x	CCOC(=O)c1ccc2nc(C(F)(F)F)nc(N3CCc4ccccc4C3)c2c1
13	-2.6	O=C(CN(C(=O)c1csnn1)c1ccccc1)NCc1ccc2c(c1)OCO2
x	0.7	COC(=O)c1csc2c(C(F)(F)F)cc(=O)[nH]c12
x	-1.6	O=S(=O)(c1ccc(Cl)c(Cl)c1)N1CCSCC1
5	x	CCOC(=O)CCc1c(C)n(CC)c2cc(-c3ccccc3OC)nn2c1=O
x	0.4	COc1cccc2c1OCC2=O
x	-0.7	O=C(c1ccccc1)c1ccccc1-n1cccc1
-23	x	COc1ccc(C(CNC(=O)c2ccccc2)N2CCCC2)cc1 (centres undefined)
x	-0.3	N/C(CSc1ccc(Cl)cc1)=N\S(=O)(=O)c1ccc(F)c(Cl)c1
6	-4.8	NC(=O)CSc1ncnc2c1cnn2-c1ccccc1
x	-0.9	COc1ccc(C(=O)Nn2c(-c3cc(OC)c(OC)c(OC)c3)nc3ccccc3c2=O)cc1[N+](=O)[O-]
